VDR inh: vitamin D3 receptor (human) inhibition; P11473; VDR-SRC2-3 peptide fluorescence polarization, 2 h; Potency, µM, without a hit: max response, negative = inhibition, actives largely listed as inhibitors; 400,000 compounds, 0.93% hits; active = well fitted inhibition curve with a large enough effect; inconclusive = small, poorly fitted or top-dose-only effect, or another doubt; inactive = no such curve, though single readings can be large or run the other way; note: series mostly up to about 120 µM
Target sequence (P11473 whole entry, looked up): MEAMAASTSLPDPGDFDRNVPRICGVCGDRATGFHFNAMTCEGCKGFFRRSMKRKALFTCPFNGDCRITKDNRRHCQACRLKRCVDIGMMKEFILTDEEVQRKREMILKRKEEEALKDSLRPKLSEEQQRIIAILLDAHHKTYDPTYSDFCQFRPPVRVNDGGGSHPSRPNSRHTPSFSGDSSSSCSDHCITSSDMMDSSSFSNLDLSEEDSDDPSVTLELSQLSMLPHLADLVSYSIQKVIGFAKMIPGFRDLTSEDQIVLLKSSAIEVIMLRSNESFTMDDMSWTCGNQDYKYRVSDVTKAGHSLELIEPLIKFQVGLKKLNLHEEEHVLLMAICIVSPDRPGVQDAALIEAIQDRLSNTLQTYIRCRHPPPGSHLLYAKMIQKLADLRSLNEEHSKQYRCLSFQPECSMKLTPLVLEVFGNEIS
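Measured by FP: displacement of SRC2-3 coactivator peptide from VDR by library compounds, following a two-hour ambient incubation.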
* = called active by the depositor; ? = inconclusive; & = joins results of further samples. % is set by controls: 0 for no effect and ±100 for the full control effect; potency is the fitted concentration of half-maximal effect.

Structure,VDR inh
CC(C(=O)NC(c1ccccc1)c1ccccc1)N1CCOCC1 (centres undefined),0.6%
N#CCCN(C(=O)COc1ccc(C#N)cc1)c1ccc(F)cc1,5.1%
Cc1cccc(CCNC(=O)c2ccc3c(c2)N(Cc2ccccc2F)C(=O)c2ccccc2S3)c1,11.0%
COc1ccc(NC(=O)CC2SC(=Nc3ccccc3)NC2=O)c(OC)c1 (centres undefined),-5.5%
C=CC1=C(C)C2=Cc3c(C=C)c(C)c4[n]3[Sn+2][n]3c(c(C)c(CCC(=O)O)c3=CC3=NC(=C4)C(C)=C3CCC(=O)O)=CC1=N2,35.5µM*
COc1ccc(NCc2cc3ccccc3[nH]c2=O)cc1,-22.8%
N#C/C(=C\c1ccccc1[N+](=O)[O-])C(=O)NCc1ccccc1,?
CN(CC(O)COc1ccc(S(=O)(=O)N2CCOCC2)cc1)C1CCCCC1 (centres undefined),2.8%
O=C(CC(Nc1ccccc1Cl)C(=O)O)c1ccccc1 (centres undefined),25.1µM*
Cc1ccc(NC(=O)C2CC(=O)N(CCc3ccccc3)C2)c(C)c1 (centres undefined),-16.9%
COc1ccc(S(=O)(=O)Nc2cc3c(C(=O)OC(C)C)c(C)oc3c3ccccc23)cc1,-13.0%
O=C(Cn1ccsc1=NC(=O)c1ccco1)c1ccccc1,-2.1%

Next records
Structure,VDR inh
COc1ccccc1Nc1nc(C)cc(C)c1C(N)=O,-3.6%
COc1ccc(S(=O)(=O)N2CCOC23CCN(S(=O)(=O)c2ccc(F)cc2)CC3)cc1,-1.0%
Nc1ncc(-n2cncn2)c(-c2ccc(Cl)cc2)n1,3.5%
CCCNC(=O)c1onc(CSc2ccncc2)c1C(=O)NCCC,1.9%
COc1ccc(C)cc1NC(=O)CCCN1C(=S)NC(C)(C)CC1C (centres undefined),-9.6%
O=C(NC(Cc1ccccc1)C(=O)O)/C(=C\c1ccccc1F)NC(=O)c1ccccc1 (centres undefined),-3.9%
CN(C(=O)CSc1nc2ccc(NC(=O)COc3ccc(F)cc3)cc2s1)c1ccccc1,0.9%
CN1c2ccc(C=O)c3c(C=O)ccc(c23)N(C)C1(C)C,?
COc1ccc(NC(=O)N2C3CCCC2CC(NC(=O)c2ccccc2)C3)cc1 (centres undefined),4.6%
Nc1c(-c2cccc([N+](=O)[O-])c2)nc2ccccn12,6.1%
Cn1c(=O)c2c(ncn2CC(=O)Nc2cccc(Cl)c2Cl)n(C)c1=O,-2.8%
O=C(NN=C1CCCCC1)NC1CCCCC1,-10.8%

(continued)
Structure,VDR inh
CCOc1ccc(-c2nnn(CC(=O)NCCc3c[nH]c4ccccc34)n2)cc1,12.9%
CCOC(=O)c1ccc(N2C(=O)C=CC2=O)cc1,50.1µM*
COc1ccc(CCNC(=O)COC(=O)c2cc(S(=O)(=O)N3CCOCC3)ccc2C)cc1OC,-11.3%
CCOC(=O)N1CCN(C(=S)Nc2ccc3nc(N4CCN(CC)CC4)cc(C)c3c2)CC1,-9.8%
Cc1ccc(CNC(=O)CCCc2nnc3n(CC(C)C)c(=O)c4sccc4n23)cc1,2.8%
O=C(CCc1ccccc1)N[C@@H]1c2ccccc2CC[C@H]1OCc1ccccc1,-20.2%
Cc1n[nH]c(=S)n1/N=C/c1ccccc1OCc1ccc(Cl)cc1Cl,-6.0%
CC(C)CCOP(=O)(c1ccc(N(C)C)cc1)C(O)c1c(Cl)cccc1Cl (centres undefined),1.7%
O=C(OCc1ccccc1Cl)c1ccccc1C(=O)c1ccccc1,2.0%
Cc1ccc(CS(=O)(=O)Cc2ccc(C(=O)NCC3CCCO3)o2)cc1 (centres undefined),6.5%
COc1ccc(CC(=O)n2nc(-c3ccc(Cl)cc3)nc2NCc2ccco2)cc1,0.2%
O=C(NCc1ccc(F)cc1)c1ccccc1OCc1ccccc1,-16.8%

(further entries)
Structure,VDR inh
COc1ccc(N2C(S)=C(C#N)C(=O)NC23CCCCC3)cc1,50.1µM*
Cc1nn(C)c2c1c(C(F)(F)F)cc(=O)n2C(C)C(=O)NCc1ccccc1Cl (centres undefined),12.2%
CCc1cccc(NC(=O)c2cccc3c2C(=O)N(C2CCCCC2)C3)c1,-6.2%&-18.7%
COc1cc(NC(=S)N2CCN(CCO)CC2)cc(OC)c1,5.3%
Cc1ccc(NC(=O)c2cnccn2)c(OC(F)F)c1,5.7%
COc1ccccc1/C=C(/NC(=O)c1ccc(Cl)cc1Cl)C(=O)O,-4.0%
CCC(C)NC(=O)C1c2cc(OC)c(OC)cc2C(=O)N(C)C1c1ccc(OC)cc1 (centres undefined),15.7%
CCCCNC(=O)C1CCN(S(=O)(=O)N2CCCCCC2)CC1,-3.2%
CC1(C)Cc2c(c(N3CCCC3)nc3sc4c(N5CCN(CCO)CC5)ncnc4c23)CO1,-2.4%
CCC(C)N(C(=O)COC(=O)c1nc2nc(C)cc(C)n2n1)C1CCS(=O)(=O)C1 (centres undefined),3.3%
c1ccc(C[C@H]2CNCCN2CCc2cccc3ccccc23)cc1,3.2%
O=C1CN(C(=O)COc2ccc(Br)cc2)c2ccccc2N1,-8.7%

Next section:
Compound | VDR inh
Cc1cc(C)c(NC(=O)/C(C#N)=C/c2ccc(OCc3ccc(F)cc3)cc2)c(C)c1 | 17.7%
S=C(c1c[nH]c2ccccc12)N1CCOCC1 | -0.8%
O=C(Cc1ccc(Br)cc1)NCCc1ccc(Cl)cc1Cl | -9.5%
CN(C)S(=O)(=O)c1ccc2c(c1)N(CC(=O)N1CCN(c3ccccc3F)CC1)CCS2 | 12.9%
COc1ccc(CNC(=O)CCCn2nc(C)c3c(C)n(-c4ccc(C)cc4)nc3c2=O)cc1OC | 0.6%&3.2%
CCCn1c(N)c(N(CCOC)C(=O)c2ccc(N3CCCC3=O)cc2)c(=O)[nH]c1=O | -11.4%
CC1(c2ccc3ccccc3c2)NC(=O)N(CC(=O)N2CCN(Cc3ccc(C#N)cc3)CC2)C1=O (centres undefined) | -3.0%
Cc1cccc(NC(=O)C2(C)CC3c4ccccc4C2c2ccccc23)c1C (centres undefined) | -9.5%

The results go on.
Compound | VDR inh
CCOc1ccc(C(C)NC(=S)NCc2ccc(Cl)cc2)cc1 (centres undefined) | -17.6%
Cc1ccc(S(=O)(=O)N2CCN(C(=O)Cc3c(F)cccc3Cl)CC2)cc1 | -6.9%
O=c1[nH]c(CSc2ccccn2)nc2c1oc1ccccc12 | 13.9%
Cc1ccc(C)c(NC(=O)CSc2nnc(-c3cc4occc4n3C)n2-c2ccccc2C)c1 | 6.5%
CCOC(=O)c1c(S(=O)(=O)NCC(=O)N2CCN(c3cccc(Cl)c3)CC2)c(C)n(C)c1C | 7.9%
COc1ccc(-c2nc3ccc(NC(C)=O)cc3c(=O)n2Cc2cccc(Cl)c2)cc1COc1ccc(NC(C)=O)cc1 | -11.7%
NC(=O)c1ccsc1NC(=O)c1ccc([N+](=O)[O-])o1 | -17.5%
CN(CC(=O)Nc1ccc(SC(F)F)cc1)C1CCCCC1 | -11.0%

5 records picked at random from the list so far:
Compound | VDR inh
O=c1[nH]c(CSc2ccccn2)nc2c1oc1ccccc12 | 13.9%
Cc1ccc(C)c(NC(=O)CSc2nnc(-c3cc4occc4n3C)n2-c2ccccc2C)c1 | 6.5%
NC(=O)c1ccsc1NC(=O)c1ccc([N+](=O)[O-])o1 | -17.5%
Cc1ccc(S(=O)(=O)N2CCN(C(=O)Cc3c(F)cccc3Cl)CC2)cc1 | -6.9%
CCOC(=O)c1c(S(=O)(=O)NCC(=O)N2CCN(c3cccc(Cl)c3)CC2)c(C)n(C)c1C | 7.9%

Remaining list, next part.
Compound | VDR inh
CC(C)OCCCN1CN(S(=O)(=O)c2ccc(Cl)cc2)c2nc3ccccc3nc21 | 6.6%
COc1ccc(CC(=O)NNC(=S)NCC2CC2)cc1OC | 8.9%
CCN=C1SC(C(=O)Nc2ccccc2)CC(=O)N1CC (centres undefined) | -1.3%
COc1cccc([C@@H]2Oc3ccc(Br)cc3C[C@H]2OC(=O)NCCc2ccc(OC)c(OC)c2)c1 | 3.8%
CN(C)CCNC(=O)/C(=N\O)c1ccccn1 | 6.3%
O=C(O)C1(c2ccccc2)CCN(S(=O)(=O)c2cccs2)CC1 | -17.5%
O=C(Nc1ccccc1C(F)(F)F)N1CCC(N2CCCCC2)CC1 | 12.0%
C/C(CC1CC(C)OC1=O)=N\NC(N)=S (centres undefined) | 10.2%

Looked up above:
VDR inh with CC(C)OCCCN1CN(S(=O)(=O)c2ccc(Cl)cc2)c2nc3ccccc3nc21 : 6.6%
VDR inh with COc1ccc(CC(=O)NNC(=S)NCC2CC2)cc1OC : 8.9%

(list continues)
Compound | VDR inh
CCc1c(C2(O)CCCCC2)[nH]c2ccc(C(F)(F)F)cc12 | -16.1%
Cc1ccc(C)c(CN2CCC(n3nccc3NC(=O)CCCc3ccccc3)CC2)c1 | -8.9%
O=C(COc1ccccc1)N1CCN(c2ncccn2)CC1 | -4.6%
CCC(C)(C)NC(=O)C1CCN(S(=O)(=O)c2ccc3c(c2)CCCN3C(C)=O)CC1 | -4.9%
O=C(N/N=C/C=N/NC(=O)c1ccco1)c1ccco1 | -0.6%
CCc1noc(C)c1C(=O)N1CC(C)OC(C)C1 (centres undefined) | -8.7%
O=C(Nc1cccc(S(=O)(=O)NC2=NCCC2)c1)c1ccc(F)cc1 | -1.3%
CNc1ccccc1C(C)(C)c1cc(-c2ccc(F)cc2)no1 | -6.7%

Further structures:
Compound | VDR inh
CC1CCCCN1CCCNC(=O)CN1C(=O)CSc2ccc(S(=O)(=O)N3CCOCC3)cc21 (centres undefined) | -5.4%&5.5%
Cc1ccc2c(c1)-c1onc(C(=O)N3CCN(c4cc(C)ccc4C)CC3)c1CO2 | -1.4%
COc1ccc(/C=C/C(=O)OCC(=O)N2CCc3ccccc32)cc1 | -5.0%
COc1ccc(Nc2nc(N/N=C/c3ccc(N(C)C)cc3)nc(C)c2[N+](=O)[O-])cc1 | -1.5%
CCN(CC)S(=O)(=O)c1cccc(NC(=O)c2ccc(Sc3nncn3C)c([N+](=O)[O-])c2)c1 | 10.8%
N=c1c2c3c(sc2ncn1CCCO)CCCC3 | 11.4%
CC(CCN1CCN(c2ccccc2)CC1)c1ccccc1 (centres undefined) | 13.1%
CCCn1c(SCC(=O)N(CC)c2c(N)n(Cc3ccccc3)c(=O)[nH]c2=O)nnc1-c1ccncc1 | 13.9%

Continued:
Compound | VDR inh
COC(=O)C[N+](C)(C)CC#Cc1ccccc1 | 17.1%
COc1cccc2cc(C(=O)C3=C(O)C(=O)N(CCN4CCOCC4)C3c3ccc(C(C)(C)C)cc3)oc12 (centres undefined) | -11.1%
Cc1ccc(C(C)C)c(OCC(=O)NN=C2CCCC2)c1 | -13.6%
Cc1cc(C(=O)NC(CC(C)C)C(=O)O)cc(C)c1[N+](=O)[O-] (centres undefined) | -9.5%
O=C1c2ccccc2NC(c2ccc([N+](=O)[O-])cc2)N1O (centres undefined) | 13.9%
CN(C)CC(C)(C)CNS(=O)(=O)c1ccc(Cl)c(Cl)c1 | -22.9%&-11.5%
CC12CC(O)C3c4ccc(O)cc4CCC3C1CCC2=O (centres undefined) | -8.0%
CCOC(=O)/C(=N\NC(=O)c1ccccc1)c1ccccc1 | 3.1%

More structures follow.
Compound | VDR inh
O=C(NCc1ccc(F)cc1)C1CCCCN1S(=O)(=O)c1ccc(F)cc1 (centres undefined) | 4.0%
C=CCn1c(SCC(=O)N(CC)C2CCS(=O)(=O)C2)nnc1-c1ccccc1 (centres undefined) | -1.4%
CC1(c2ccc3ccccc3c2)NC(=O)N(CC(=O)O)C1=O (centres undefined) | -0.2%
Clc1ccccc1N=C1SCCS1 | 8.6%
CCOc1cc(CO)c(Br)cc1OCC(=O)O | 13.2%
O=C(CN1CCC(n2nnc3cc(F)ccc32)CC1)N1CCCc2ccccc21 | 6.3%
CC(C)N(C(=O)[C@H]1CC(CC(=O)NCc2cccc(C(F)(F)F)c2)C(=O)N2CCc3c([nH]c4ccccc34)[C@]12C)C(C)C (some centres undefined) | -3.1%
COc1ccc(C(=O)CSc2nnc(CNc3ccc(C)cc3C)n2Cc2ccco2)cc1 | -13.9%

Other records.
Compound | VDR inh
CCC[C@@H](CN1CCC[C@H]1CN1C(N)=NC[C@H]1CC(C)C)N1C[C@@H]([C@H](C)CC)N(CCCC2CCCC2)C1=N | -5.7%
Cc1cccc(N(CC(=O)NC2CCCC2)C(=O)CCCC(=O)Nc2ccccn2)c1 | 1.0%
COc1ccc(Cc2c(O)nc(SCC(=O)N3CCCCCC3)[nH]c2=O)cc1 | -12.1%
O=C(O)CCC(=O)N1CCc2cc(S(=O)(=O)N3CC=C(c4ccccc4)CC3)ccc21 | -8.9%
CC(C)CCNC(=O)NC(=O)COC(=O)c1cc(S(=O)(=O)N2CCOCC2)ccc1N1CCCCC1 | -13.7%
CCOC(=O)N1CCN(c2ccc(C(F)(F)F)cn2)CC1 | -5.7%
COC(=O)c1cc(NC(=O)CC2CCCC2)cc(C(=O)OC)c1 | -4.1%
O=C(CCc1nc2ccccc2[nH]1)Nc1ccc2c(c1)OCO2 | -7.3%

Further structures
Compound | VDR inh
O=C(N/N=C/c1ccc(O)cc1)c1csc2c1CCCC2 | 11.9%
CCCOc1ccccc1NC(=O)c1ccc([N+](=O)[O-])cc1 | -11.9%
Cc1nnc(NC(=O)CSc2nnc(Cc3cccn3C)n2CCc2ccccc2)s1 | -2.0%
CCc1nc(CNC(=O)C2CCC(=O)N(Cc3ccccc3F)C2)no1 (centres undefined) | ?
O=C(CSc1nnc2c(n1)[nH]c1ccccc12)NCc1ccccc1F | -15.7%
O=C(NC(Cc1c[nH]c2ccccc12)C(=O)OCC(=O)c1cccc2ccccc12)c1cccs1 (centres undefined) | -11.7%
Cc1ccc2nc(-c3cccs3)c(Nc3c(C)cccc3C)n2c1 | -3.5%
CC1CCc2c(C(=O)Oc3cccc(-n4cnnn4)c3)csc2C1 (centres undefined) | 12.6%

3 compounds out of the list, arranged by molar mass, ascending:
Compound | VDR inh
CC1CCc2c(C(=O)Oc3cccc(-n4cnnn4)c3)csc2C1 (centres undefined) | 12.6%
CCc1nc(CNC(=O)C2CCC(=O)N(Cc3ccccc3F)C2)no1 (centres undefined) | ?
O=C(CSc1nnc2c(n1)[nH]c1ccccc12)NCc1ccccc1F | -15.7%

An excerpt; count on the stated rates, not on these rows.
